VACV mCherry inh = vaccinia inhibition (mCherry reporter) | Vaccinia virus mCherry reporter infection, fluorescence; about a quarter of the inactives have no number | 310,000 compounds, 0.63% hits | Potency, µM (series often up to 36.5 µM), for the others: top-dose activity change, negative = inhibition, hits mostly inhibitors; active = well fitted inhibition curve with a large enough effect; inconclusive = small, poorly fitted or top-dose-only effect; inactive = no such curve, though single readings can be large or run the other way; tested in A549 cells; further: nearly all actives have a fitted effect of over 35% in size; inactives centre near -10
Vaccinia Venus = vaccinia inhibition (Venus reporter). Vaccinia virus Venus reporter expression, fluorescence. Potency, µM (highest dose often 36.5 µM), for inactives: at the top dose activity change, negative = inhibition, hits mostly inhibitors. 330,000 compounds, 0.46% hits. AID 720580; active means well fitted inhibition curve with a large enough effect; inconclusive means small, poorly fitted or top-dose-only effect; inactive means no such curve, though single readings can be large or run the other way; tested in A549 cells; further: nearly all actives have a fitted effect of over 30% in size; inactives centre near -10
The depositor's hits bear a star; i = inactive; ? = inconclusive; / = no result given; & = joins results of further samples; [ ] = remark or other dose. On the % scale 0 is the no-effect control and ±100 the full control effect; potency means the concentration at half of the fitted maximal effect.

SMILES | VACV mCherry inh | Vaccinia Venus
CC(C)CN1CCC(Oc2cccc(C(=O)NCCc3ccccc3)c2)CC1 | -24% | -16%
CCOc1cc(C(=O)N(C)Cc2cc3ccccc3[nH]c2=O)cc(OCC)c1OCC | / | -25%
O=C(NCC(c1ccco1)N1CCCC1)c1cccc(NS(=O)(=O)c2ccc(Br)cc2)c1 (stereo not given) | -10% | -3%
CCOC(=O)C1(C)CCN1C(=O)c1cc2ccccc2s1 (stereo not given) | -19% | -17%
O=C(NCc1ccccc1)C(=O)NCC1OCCN1C(=O)c1ccc(Cl)cc1 (stereo not given) | -21% | -19%
COc1ccccc1CNC(=O)COC(=O)[C@H](Cc1c[nH]c2ccccc12)NC(=O)c1cccs1 | -6% | -7%
COC(=O)Cn1ccc(N(C)C)c(C#N)c1=O | i | -8%
Cc1cccc(-c2nc(CS(=O)CC(=O)NCc3ccco3)c(C)o2)c1 (stereo not given) | i | -10%
COc1ccc2nc(SCC(=O)NCc3ccc(OC)c(OC)c3)[nH]c2c1 | -18% | -9%
CC(C)CCNC(=O)CN1C(=O)CSc2ccc(S(=O)(=O)N3CCC(C)CC3)cc21 | -8% | -6%
O=C(Nc1cccs1)Nc1c(F)c(F)c(F)c(F)c1F | -17% | -15%
CC1=C(c2ccc(C)c(C)c2)S(=O)(=O)N=C1N1CCC(C(=O)N2CCC(C(N)=O)CC2)CC1 | -9% | 1%
CC(=O)n1cc([C@@H]2C=C(C(=O)Nc3ccccc3)O[C@H](OCCCCO)C2)c2ccccc21 | -13% | ?
CCn1nnnc1SCC(=O)NCc1ccc2c(c1)OCO2 | / | -7%
COc1ccc(CNC(=O)COC(=O)c2ccccc2C(=O)c2ccccc2)cc1 | ? | -30%
Cc1cc(C)nc(Nc2ccccc2Br)n1 | i | -20%
COC(=O)CNC(c1ccccc1)c1cc(Br)ccc1NC(=O)CCN1CCOCC1 (stereo not given) | -10% | -24%
CC(C)(C)c1[nH]nc2c1C(c1ccsc1)C(C#N)=C(N)O2 (stereo not given) | -4% | -7%
CC(=O)Nc1ccc2c(c1)OCCO2 | / | -12%
COc1ccc(NC(=O)Cn2c(=O)c3cc(Cl)ccc3n3nncc23)cc1 | 1% | -4%
Cc1ccc(NC(=O)CN2C(=O)CSc3ccc(S(=O)(=O)N(C)C)cc32)cc1C | -9% | 1%
NC(=O)C1(Nc2ccccc2)CCCC1 | -14% | -17%
O=C(Nc1ccc(C(=O)N2CCCCC2)cc1)c1ccccc1Br | -7% | -2%
CCOC(=O)N1CCN(C(c2ccnc3ccccc23)c2nnnn2-c2ccc3c(c2)OCCO3)CC1 (stereo not given) | -27% | -22%
Cc1ccc(SCC(=O)O/N=C(\N)c2ccc([N+](=O)[O-])cc2)cc1 | -15% | -3%
CC(C)OC(=O)CSc1nnc(-c2cnccn2)n1Cc1ccco1 | / | -6%
COc1cc2c(cc1OC)CN(C(=O)c1ccc(OC)c(S(=O)(=O)N3CCCC3)c1)CC2 | -18% | -7%
O=C1CCc2cc(S(=O)(=O)N3CCC(C(=O)NC4CCCC4)CC3)ccc2N1 | 4% | -6%
COc1ccc(CN2CCC(=O)N([C@H](CO)CC(C)C)CC2)cc1 | -3% | -15%&-10%
COc1ccc(CCN2CC(C(=O)Nc3cccc(C(C)=O)c3)CC2=O)cc1OC (stereo not given) | i | -18%
CCn1c(CN2CCN(Cc3ccc(C)cc3)C(CCO)C2)nc2ccccc21 (stereo not given) | -23% | -22%
Cc1ccc(-n2c(=O)[nH]c3ccc(Br)cc3c2=O)cc1 | 1% | -1%
Cc1ccc2c(C)nc(N/C(N)=N/S(=O)(=O)c3ccccc3)nc2c1 | -17% | -13%
O=C(O)c1ccc2c(c1)C1C=CCC1C(c1ccncc1)N2 (stereo not given) | i | 4%
Cc1ccc2c(c1)N(C(=O)CCC(=O)NCCCN1CCC(Cc3ccccc3)CC1)CCO2 | i | -17%
CS(=O)(=O)c1ncc(N(Cc2ccco2)Cc2ccco2)c(C(=O)Nc2ccccc2Br)n1 | -15% | -10%
CSc1ncnc2c1ncn2CCCNCc1ccco1 | i | -14%
Cc1cc(C(=O)OCC(=O)Nc2ncc(C(F)(F)F)cc2Cl)c(C)o1 | -10% | -2%
Cc1cc(C)n(C(=O)/C(C#N)=N\Nc2ccccc2[N+](=O)[O-])n1 | -7% | -9%
CCOc1ccccc1CN1CCN(Cc2nc3c(s2)CCCC3)CC1CCO (stereo not given) | -12% | -19%
Nc1ncnc2c1CCC2 | -19%[1.46 µM] | -2%
COc1cccc(C(=O)NNC(=O)C(=O)Nc2ccc(C)cc2)c1 | -19% | -5%
CC(C)c1nn2c(=O)cc(COC(=O)c3ccc(NC(=O)C4CCCCC4)cc3)nc2s1 | -19% | ?
O=C(CCSc1nnc2ccccn12)Nc1ccc2c(c1)OCO2 | i | -3%
COc1cc2[nH]c(C(=O)N3CCN(c4ccc(F)cc4)CC3)cc2c(OC)c1OC | -15% | -10%

Already shown: an excerpt of the list.
SMILES | VACV mCherry inh | Vaccinia Venus
Cc1cccc(-c2nc(CS(=O)CC(=O)NCc3ccco3)c(C)o2)c1 (stereo not given) | i | -10%
COc1ccc2nc(SCC(=O)NCc3ccc(OC)c(OC)c3)[nH]c2c1 | -18% | -9%
CC(C)CCNC(=O)CN1C(=O)CSc2ccc(S(=O)(=O)N3CCC(C)CC3)cc21 | -8% | -6%
O=C(Nc1cccs1)Nc1c(F)c(F)c(F)c(F)c1F | -17% | -15%
CC1=C(c2ccc(C)c(C)c2)S(=O)(=O)N=C1N1CCC(C(=O)N2CCC(C(N)=O)CC2)CC1 | -9% | 1%
CC(=O)n1cc([C@@H]2C=C(C(=O)Nc3ccccc3)O[C@H](OCCCCO)C2)c2ccccc21 | -13% | ?
CCn1nnnc1SCC(=O)NCc1ccc2c(c1)OCO2 | / | -7%
COc1ccc(CNC(=O)COC(=O)c2ccccc2C(=O)c2ccccc2)cc1 | ? | -30%
Cc1cc(C)nc(Nc2ccccc2Br)n1 | i | -20%
COC(=O)CNC(c1ccccc1)c1cc(Br)ccc1NC(=O)CCN1CCOCC1 (stereo not given) | -10% | -24%
CC(C)(C)c1[nH]nc2c1C(c1ccsc1)C(C#N)=C(N)O2 (stereo not given) | -4% | -7%
CC(=O)Nc1ccc2c(c1)OCCO2 | / | -12%
COc1ccc(NC(=O)Cn2c(=O)c3cc(Cl)ccc3n3nncc23)cc1 | 1% | -4%
Cc1ccc(NC(=O)CN2C(=O)CSc3ccc(S(=O)(=O)N(C)C)cc32)cc1C | -9% | 1%
NC(=O)C1(Nc2ccccc2)CCCC1 | -14% | -17%
O=C(Nc1ccc(C(=O)N2CCCCC2)cc1)c1ccccc1Br | -7% | -2%
CCOC(=O)N1CCN(C(c2ccnc3ccccc23)c2nnnn2-c2ccc3c(c2)OCCO3)CC1 (stereo not given) | -27% | -22%
Cc1ccc(SCC(=O)O/N=C(\N)c2ccc([N+](=O)[O-])cc2)cc1 | -15% | -3%

(more compounds)
SMILES | VACV mCherry inh | Vaccinia Venus
CC1CCC/C(=N\NC(=S)Nc2ccccc2)C1 (stereo not given) | i | -5%
COc1ccc(/C=C2\Oc3ccccc3C2=O)cc1 | -3% | -17%
O=[N+]([O-])c1ccc(-c2ccccc2)c([As](=O)(O)O)c1 | i | -2%
COc1cccc(C2CC(c3ccc(NS(C)(=O)=O)cc3)=NN2C(=O)c2ccccc2)c1OC (stereo not given) | -12% | -5%
Cc1noc(C)c1COc1ccc(CC(=O)NCCc2ccccn2)cc1 | -5% | 1%
CC(=O)N(C(C)=O)S(=O)(=O)c1ccc(N=NN2CCOCC2)cc1 | i | -5%
COc1ccc(C(=O)COC(=O)C(Cc2c[nH]c3ccccc23)NC(=O)c2ccc(C(C)(C)C)cc2)cc1 (stereo not given) | i | -7%
N=c1c2c(n(Cc3ccc(Cl)cc3Cl)c3c1CCC3)CCCC2 | / | ?
COc1ccc(CN(C(=O)c2cccs2)C(C(=O)NC2CCCCC2)c2ccc3ncccc3c2)cc1 (stereo not given) | -6% | 0%
O=C(CSc1nc2ccccc2n1Cc1ccccc1)N/N=C/c1ccco1 | -14% | -13%
CC1=C/C(=C\c2ccc(Br)o2)C(=O)O1 | -15% | -7%
CCN(Cc1ccccc1)C(=O)CN1C(=O)NC(CC)(c2ccc(F)cc2)C1=O (stereo not given) | 3% | -21%
CCOC(=O)C1CCN(C(=O)CS(=O)(=O)Cc2nc(-c3ccccc3Cl)oc2C)CC1 | -5% | -19%
CCN(Cc1nc(-c2ccc(OC)cc2)no1)C(=O)c1ccc2c(c1)OCO2 | -18% | -9%
Cc1cccn2c(=O)c3cc(C#N)c(=O)n(-c4c(C)n(C)n(-c5ccccc5)c4=O)c3nc12 | -4% | -12%
COc1ccc(C(=O)OCC(=O)NCc2ccco2)cc1S(=O)(=O)N1CCN(c2cccc(Cl)c2)CC1 | i | -15%
COC(=O)c1ccccc1NC(=O)C(C)Oc1ccccc1 (stereo not given) | -29% | -18%
CC(=O)Oc1cc2c(C(=O)NCCN3CCOCC3)c(C)oc2c2ccccc12 | / | -15%
COc1ccccc1Cc1c(-c2ccco2)nc2ccc(Cl)cn12 | 12% | 4%
COC1=Nc2ccccc2N2CCN=C12 | 7% | 6%
O=C(NCc1cccc(C(F)(F)F)c1)N1CCN(S(=O)(=O)c2ccccc2F)CC1 | -17% | -15%
COc1cc([N+](=O)[O-])cc(/C=N/NC(=O)CSc2nnc(-c3ccccc3)n2C)c1O | -25% | 3%
CCCOC(=O)CC1C(=O)NCCN1Cc1ccc(F)cc1 (stereo not given) | i | -11%
COC(=O)CC1=NN(c2ccccc2)C(=O)C1 | -9% | -6%
COc1cc(C2C(=O)N(C3CCCCC3)CC(=O)N2C2CCCC2)ccc1OC(C)C (stereo not given) | i | -7%
Cc1cc2ccccc2n1CCNCc1c(C(=O)N2CCOCC2)nc2ccccn12 | -14% | -10%
Clc1nccnc1-c1ccccc1 | -19% | -8%
Cn1c(=O)c2c(ncn2CC(=O)Nc2cc(S(=O)(=O)N3CCCCC3)ccc2Cl)n(C)c1=O | i | -19%
CCc1ccccc1N(CC(=O)NC1CCCC1)C(=O)CNC(=O)c1cccs1 | -7% | -6%
COc1ccccc1N(C)S(=O)(=O)c1ccc(C(=O)Nc2ccc3nc(C)sc3c2)cc1 | ? | ?
CCOc1ccc(/C=N/NC2=NCCCCC2)cc1 | i | 0%
CC(=O)NC(Cc1cccc(C)c1)C(=O)NC1CCN(C(=O)NCc2ccccc2)CC1 (stereo not given) | i | -1%
Cc1ccc(C(=O)N2CCc3ccccc32)cc1[N+](=O)[O-] | -5% | -8%
CCN1C(=O)/C(=C/C=C2\C=CN(CC)c3ccccc32)SC1=S | -11% | 5%
CN(CC1CCCO1)S(=O)(=O)c1ccc(C(=O)Nc2ccc(F)cc2)cc1 (stereo not given) | -4% | -12%
CN(C)S(=O)(=O)c1ccc(C(=O)OCCCN=C2NS(=O)(=O)c3ccccc32)cc1 | 1% | -5%
CCOc1ccc(NC(=O)c2ccc3c(SCC(=O)O)c4c(nc3c2)CCCC4)cc1 | 11%&-8% | -6%&-11%
CC1CCCN(C(=O)c2ccc(NS(=O)(=O)c3cccc([N+](=O)[O-])c3)cc2)C1 (stereo not given) | -15% | -14%
CC(=O)Nc1cccc(C(=O)Nc2ccccc2C(=O)O)c1 | ? | -21%
Cc1ccc(NC(=O)Cc2nnc(SCC(=O)NC3CCCC3)n2C)c(C)c1 | -8% | 5%
NC(=O)C1CCCN(S(=O)(=O)c2ccc(Br)cc2)C1 (stereo not given) | / | 15%
COc1cc(C(=O)OC(C)C(=O)N2CCc3ccccc3C2)ccc1OCC(=O)N1CCOCC1 (stereo not given) | -14% | -4%
CSC(=Nc1ccccc1)C(C#N)c1nc2ccccc2[nH]1 (stereo not given) | -4% | -18%
COc1ccc(/C(C)=N/NC(=O)CNC(=O)c2ccncc2)c(OC)c1 | -17% | -16%
CN(C)Cc1ccccc1-c1cc(NC2CC2)ncn1 | i | 0%
O=C1CC(SC(=Nc2ccccc2)Nc2ccccc2)C(=O)N1c1ccc(Cl)cc1 (stereo not given) | / | -13%
COc1ccc(CCNc2ccc(C(CC(N)=O)NC(=O)c3cc(C)cc(C)c3)cc2[N+](=O)[O-])cc1 (stereo not given) | i | -12%
Cc1ccc2c(c1)cc(CN(C)Cc1nc(C)cs1)c(=O)n2C | -13% | -11%
COc1ccccc1C(=O)Nc1ccnn1C1CCN(C2CCCCC2)CC1 | 8% | -23%
Clc1ccc(-c2nc3ccc(Cl)cn3c2CN2CCOCC2)cc1 | / | 9%
N#CC1=C(N)Oc2n[nH]c(-c3cccs3)c2C1c1ccoc1 (stereo not given) | -5% | -12%
COc1ccccc1C(=O)NCCSc1c(C)[nH]c2ccccc12 | i | -24%
Cn1cc(C(=O)NCCc2ccccc2)c(=O)c2cc(S(=O)(=O)N3CCOCC3)ccc21 | 3% | 11%
CCOC(=O)[C@]12CCCC=C1N(Cc1ccc(Cl)cc1Cl)C(=O)[C@H](CC(=O)NCc1cccc(C(F)(F)F)c1)C2 | -20% | -19%
CC(C)(C)Cn1c(=O)[nH]c(=O)c2cc([N+](=O)[O-])cnc21 | i | 1%
C[C@H](CO)N1C[C@H](C)[C@@H](CN(C)S(=O)(=O)c2cccs2)Oc2c(NC(=O)Nc3ccc4c(c3)OCO4)cccc2C1=O | i | -24%
COc1c(C)cc(C(=O)C2CCCN(C(=O)c3cc(C)on3)C2)cc1C (stereo not given) | -24% | -19%
COC(=O)c1ccc(N2C(=O)CC(NCc3ccccc3)C2=O)cc1 (stereo not given) | -2% | -8%
COC(=O)c1c(SCC(=O)Nc2ccc(C)cc2)nc(=O)[nH]c1C | -10% | -7%
